Assay outcomes from PubChem BioAssay.
A1 inh – inhibitors of the anti-apoptotic protein A1, read as caspase activation; MEF A1-2A-BIM cells, Caspase-Glo 3/7 luminescence, 3 h; percent of clofoctol response, vehicle zero; caspase activation, % (test concentration not listed); 0.066% of 330,000 active;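 active = over half of replicate activation scores above 10%, or exactly half above 10 with the replicate mean above 10; inconclusive = replicate mean below 10 yet half the replicates above 10; inactive = over half of replicates below 10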;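 also: wells of about 30 µL received 50 nL stock; many hits fall short of the cut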
LANA-H2A inh – blocks KSHV LANA binding to histone H2A/H2B. Q9QR71. cell-free LANA-H2A/H2B peptide, fluorescence polarization. inhibition, % (test concentration not listed). 0.6% of 320,000 active; in the data active = inhibition mostly above about 10%, no sharp cut-off; inactive = mostly below about 6.7%;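 also: stock transfer was 7.5 nL into about 10 µL; 0% = median of vehicle wells and 100% = median of positive control wells; one replicate is shown; the record names a cut of 25% in any replicate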
UCH37 DUB inh – human UCH37 deubiquitinating enzyme inhibition; purified proteasome/UCH37, Ub-AMC cleavage fluorescence; AID 588478; Q9Y5K5; 0.33% of 330,000 active; inhibition, % (concentration not given with the values);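 active = mean of two replicates above 20%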;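 also: 0% = compound-free wells with enzyme and 100% = wells lacking proteasome; stock transfer was 100 nL into about 20 µL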
Target sequence (Q9Y5K5 whole entry, looked up): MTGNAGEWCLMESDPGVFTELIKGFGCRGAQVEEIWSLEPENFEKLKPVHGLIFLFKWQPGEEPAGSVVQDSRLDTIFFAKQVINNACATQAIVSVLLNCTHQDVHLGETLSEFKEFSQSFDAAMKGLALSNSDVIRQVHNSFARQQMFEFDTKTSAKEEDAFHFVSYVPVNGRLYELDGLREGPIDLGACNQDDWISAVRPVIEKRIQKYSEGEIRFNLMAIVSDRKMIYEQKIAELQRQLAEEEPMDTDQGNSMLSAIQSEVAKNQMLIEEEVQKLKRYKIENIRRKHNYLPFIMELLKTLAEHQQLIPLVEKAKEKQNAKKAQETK
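Test system – human UCH37 enzyme supplied as purified proteasome complex · Incubation – 30 min preincubation with enzyme, 25 min cleavage at room temperature · Detection – AMC fluorescence from Ub-AMC cleavage, excitation 355 nm, emission 460 nm · Benchmarks – no-proteasome wells (full inhibition) and compound-free wells (no inhibition)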
Vif TR-FRET – inhibitors of Vif binding to APOBEC3G peptide, primary screen, biochemical, TR-FRET, GST-Vif 1-94, biotin-A3G peptide, dose response retest (AID 1117319) | TR-FRET GST-Vif / biotin-A3G peptide binding; higher % means a stronger effect; test concentration not given here; strong numbers were not always called active | inhibition, %, or IC50 in µM where a hit was titrated | 0.57% of 260,000 active;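 active = above the screen mean plus three standard deviations and confirmed in dose response; inconclusive = results disagree or hit not tested in dose response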;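 also: Vif residues 1-94 fused to GST binding biotinylated APOBEC3G peptide 110-148; 0% = full assay without inhibitor and 100% = GST in place of GST-Vif; retest series ran down from 100 µM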
Ecoli growth – blocks Escherichia coli growth | OD600, 23 h; hits give low values | OD600 absorbance (test concentration not listed) | 0.21% of 330,000 active;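 active = OD600 absorbance below the run mean of sample wells minus 3.6 SD, in any replicate, cut at about 0.56 in these data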;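 also: stock transfer was 300 nL into about 60 µL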
HNF4A DNA FP – change in binding of human HNF4 alpha to DNA. P41235. 0.3% of 360,000 active. HNF4a-FITC DNA binding, fluorescence polarization, 1 h. activity change, % at 10 µM; in the data active = activity change above about 30%, passing the limit was not always enough;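 also: controls were the assay level and a saturating level of protein; the project sought stronger binding though the title names inhibitors; some compounds called inactive have numbers as strong as hits; positive values seem to mean higher polarization but the record does not say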
Target sequence (P41235 whole entry, looked up): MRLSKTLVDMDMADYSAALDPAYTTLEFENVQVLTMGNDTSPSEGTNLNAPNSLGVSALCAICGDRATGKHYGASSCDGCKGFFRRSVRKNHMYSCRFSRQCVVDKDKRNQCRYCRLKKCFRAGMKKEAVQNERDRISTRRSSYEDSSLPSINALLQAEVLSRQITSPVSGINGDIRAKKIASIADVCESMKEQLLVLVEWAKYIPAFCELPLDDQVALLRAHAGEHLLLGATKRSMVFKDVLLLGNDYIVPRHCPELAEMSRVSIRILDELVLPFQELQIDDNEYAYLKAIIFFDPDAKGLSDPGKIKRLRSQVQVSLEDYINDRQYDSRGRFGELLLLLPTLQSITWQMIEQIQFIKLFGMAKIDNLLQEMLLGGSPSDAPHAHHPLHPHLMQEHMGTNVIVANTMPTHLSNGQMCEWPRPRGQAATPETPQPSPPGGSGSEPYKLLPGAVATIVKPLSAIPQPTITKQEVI
B2AR ag – activates human beta-2 adrenergic receptor causing internalization; P07550; Am2.2-beta2AR cells, FAP receptor internalization, flow cytometry; reference of the scale not given here; response, % (concentration not given with the values); 0.43% of 340,000 active; AID 504454;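 active = response above a set limit, near 3 SD of response in nonfluorescent compounds, cut at about 42% in these data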;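 also: stock transfer was 100 nL into about 11 µL; a reference agonist was the positive control; negative values mostly stem from fluorescent compounds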
Active calls of the source: *; ? = inconclusive; nt = no result given; & = joins results of further samples. This is a random part of the collection. About 2.1% of those tested had a hit in this group.

SMILES | A1 inh | LANA-H2A inh | UCH37 DUB inh | Vif TR-FRET | Ecoli growth | HNF4A DNA FP | B2AR ag
Cn1nc(C(F)(F)F)c(C(=O)Nc2ccc(F)cc2F)c1Sc1ccc(Cl)cc1 | 0.1 | -2.2 | 3.5 | 5% | 0.71 | 2.2 | -3
O=C1c2ccccc2C(=O)C1c1ccccc1F | 1.5 | 0.2 | 2.7 | 0% | 0.68 | 7.6 | -3
CCCn1c2ccccc2c2cnn(CC(=O)NC3CCCCC3)c(=O)c21 | 0.5 | 1.6 | -6.3 | nt | 0.72 | 0.2 | -11
COc1ccc(-c2ccc(CCC(=O)O)n2C(C)C)cc1 | 0.0 | 6.0 | -151 | 30% | 0.7 | 1.2 | -2
N=c1c2c(-c3ccccc3)c(-c3ccccc3)n(Cc3ccccc3)c2ncn1CCCO | 0.9 | -1.2 | 2.6 | -1%&-1% | 0.69 | 4.5 | 3
CSc1ccccc1NC(=O)CN(C)C(C)C(=O)NCc1ccc2c(c1)OCO2 (stereo unspecified) | 0.1 | 4.4 | -0.9 | nt | 0.69 | -0.4 | 11
COc1cccc(C(=O)NNC(=O)c2ccccc2-n2cccc2)c1 | 1.1 | -9.7 | 1.9 | 3% | 0.66 | -2.5 | 0
O=C(Nc1ccccc1N1CCOCC1)c1ccc([N+](=O)[O-])s1 | -0.9 | -4.5 | nt | nt | nt | -4.0 | 1
O=C(c1ccc2c(=O)n(-c3ccccc3)c(=S)[nH]c2c1)N1CCCCC1 | -0.8 | -4.6 | 1.7 | -1% | 0.69 | 1.6 | 2
Cc1cccn2c(=O)nc(SCC(=O)N3N=C(c4cccs4)CC3c3ccc(F)cc3)nc12 (stereo unspecified) | nt | nt | -6.7 | -7% | 0.65 | 3.4 | 14
C=CCn1c(=S)sc2c(=O)[nH]cnc21 | 0.5 | -2.2 | 6.1 | -4% | 0.66 | -2.3 | -2
COCCN(Cc1nc(C2(c3ccc(C)cc3)CCCC2)no1)C(C)C | 0.4 | 1.6 | 3.3 | -4% | 0.71 | 1.0 | 10
O=C1CS/C(=N\N=C\c2ccccc2Cl)N1CC1CC1 | -1.2 | -2.7 | nt | 16% | nt | -1.1 | -1
Cc1cccc(C)c1-n1c(SCC(=O)N2CC(=O)Nc3ccccc32)nc2ccccc2c1=O | 1.0 | 3.4 | -0.2 | -2% | 0.68 | -1.3 | 0
COc1cc(C(=O)N/N=C/c2ccc(OC(=O)N3CCOCC3)cc2)cc(OC)c1OC | 0.2 | 7.7 | nt | nt | nt | 1.7 | 3
CC1(C2CC2)NC(=O)N(CC(=O)N2CCN(S(=O)(=O)c3ccc(F)c(F)c3)CC2)C1=O (stereo unspecified) | 1.2 | -2.0 | 1.2 | 6% | 0.66 | 0.4 | -3
CCCCC1=CC2=CC(=O)C(C)(OC(=O)CC)C(=O)C2=CN1CCc1ccccn1 (stereo unspecified) | -0.7 | 0.7 | -3.7 | 21% | 0.66 | 0.8 | 2
COCCN(C(=O)COC(=O)/C=C/c1cccc(C(F)(F)F)c1)c1c(N)n(CC(C)C)c(=O)[nH]c1=O | -0.5 | 2.3 | 3.8 | 2% | 0.71 | -1.8 | -1
CC(C)CC(=O)NC(=S)NCc1ccccc1 | -0.3 | 5.2 | 2.2 | 1% | 0.64 | -2.3 | -1
CCOc1ccccc1/C=C/c1onc(C)c1S(=O)(=O)N1CCC(C(=O)NC)CC1 | -0.1 | 3.2 | -47 | -7% | 0.76 | -0.7 | -20
CCCOc1ccc(CNC(=O)Cc2cccs2)cc1 | -0.4 | -0.1 | 2.7 | -7% | 0.67 | 1.8 | -12
Cn1c(CCNC(=O)C2CCCCC2)nc2cc(NC(=O)c3cccs3)ccc21 | nt | nt | 0.8 | nt | 0.71 | -2.6 | -6
COc1ccc(N(CCC(=O)NCCc2ccccc2)S(=O)(=O)c2ccc(C)cc2C)cc1 | 0.5 | -5.8 | 1.6 | -3% | 0.69 | -0.1 | -8
COCCNC(=O)CSc1ncnc2sccc12 | 0.6 | -2.8 | -1.9 | 14% | 0.72 | 3.8 | -2
Cc1nc(C)c(C(=O)C2=C(O)C(=O)N(CCN3CCOCC3)C2c2ccco2)s1 (stereo unspecified) | 0.0 | -3.3 | 10 | 5% | 0.7 | 1.9 | -1
CCCCn1c(SCC(=O)N2CC(C)CC(C)C2)nc2cc(S(N)(=O)=O)ccc21 (stereo unspecified) | 0.9 | -1.8 | -2.3 | 8%&-5% | 0.72 | 5.2 | -9
COc1ccc(-c2cc3cc4c(cc3cn2)OCO4)cc1 | -4.1 | -2.9 | 0.2 | nt | 0.72 | 3.0 | 11
CSc1nc(N(C)NC(=O)c2ccc(F)cc2)c2ccccc2n1 | 0.9 | -5.1 | -0.9 | 5% | 0.7 | 1.1 | 1
CCOC(=O)c1c(C)[nH]c(C(=O)OCC(=O)N2CCc3ccccc32)c1C | -0.5 | 3.1 | 4.0 | 25% | 0.73 | -2.6 | 8
Cc1ccc(C)n1CCN1CCN(CC(=O)Nc2ccc(S(N)(=O)=O)cc2)CC1 | 0.2 | -1.2 | 3.0 | -3% | 0.71 | -1.9 | 3

Record cards, from the list above. Screens in order: A1 inh | LANA-H2A inh | UCH37 DUB inh | Vif TR-FRET | Ecoli growth | HNF4A DNA FP | B2AR ag
`Cc1cccc(C)c1-n1c(SCC(=O)N2CC(=O)Nc3ccccc32)nc2ccccc2c1=O` as listed: 1.0 | 3.4 | -0.2 | -2% | 0.68 | -1.3 | 0
`CSc1nc(N(C)NC(=O)c2ccc(F)cc2)c2ccccc2n1` as listed: 0.9 | -5.1 | -0.9 | 5% | 0.7 | 1.1 | 1
`COCCN(Cc1nc(C2(c3ccc(C)cc3)CCCC2)no1)C(C)C` as listed: 0.4 | 1.6 | 3.3 | -4% | 0.71 | 1.0 | 10

Following part.
SMILES | A1 inh | LANA-H2A inh | UCH37 DUB inh | Vif TR-FRET | Ecoli growth | HNF4A DNA FP | B2AR ag
COc1ccc(-c2noc(C3CCCN(C(=O)c4ccccc4OC)C3)n2)cc1 (stereo unspecified) | -3.4 | -5.2 | 0.5 | nt | 0.67 | 2.4 | -3
COC(=O)CCC(=O)c1oc2ccc(OC)cc2c1N | -1.2 | -4.2 | -8.2 | -3% | 0.77 | 1.1 | -3
COC(=O)NCC(c1ccco1)N1CCN(c2ccccc2)CC1 (stereo unspecified) | 0.3 | 1.7 | 1.1 | 7% | 0.71 | 3.2 | -3
COc1ccccc1NC(=O)Nc1ccnn1C1CCN(C(=O)c2cccnc2)CC1 | -0.2 | -2.9 | -0.4 | nt | 0.72 | -0.3 | -6
CC(=O)c1ccc(C(=O)N2CCCC(C(=O)c3ccc(Cl)cc3)C2)s1 (stereo unspecified) | 0.2 | -0.8 | -1.3 | nt | 0.71 | -1.3 | -18
Cc1ccc2cn[nH]c2c1NC(=S)NC(=O)c1ccccc1 | -0.3 | 4.2 | 1.7 | 0% | 0.7 | -0.1 | -10
CCOC(=O)N1CCN(c2c(NCCN3CCN(c4ccccc4F)CC3)c(=O)c2=O)CC1 | 0.8 | 0.4 | 1.8 | -4% | 0.72 | 6.3 | 9
Cc1cc(NC(=O)CCC(=O)N(c2cccc(F)c2)C(C(=O)NC2CCCC2)c2ccc(C)o2)no1 (stereo unspecified) | 0.4 | -7.4 | 1.6 | nt | 0.65 | 1.2 | -4
CSc1ccccc1C(=O)OCC(=O)N1CCCC1=O | -0.5 | -1.2 | 0.8 | -7% | 0.61 | 0.0 | 0
CCOC(=O)C1CCN(C(=O)NS(=O)(=O)c2ccc(C)cc2)CC1 | -0.6 | 4.0 | 6.1 | ? | 0.66 | 0.1 | 3
COC(=O)c1cc(-c2ccc(C)o2)nc2ccccc12 | 0.3 | -5.2 | -187 | nt | 0.69 | -3.8 | 1
COc1ccccc1OCCC(=O)OCC(=O)Nc1cccc(Br)c1 | -0.7 | nt | 1.1 | -6% | 0.62 | 4.4 | 2
NS(=O)(=O)c1ccc(CCNC(=O)NC2CCCCC2)cc1 | -0.6 | -3.5 | 0.9 | -1% | 0.71 | -1.5 | 0
Cc1nc2ncnn2c(Nc2ccc3c(c2)OCCO3)c1C | 0.5 | 3.9 | 4.6 | -4% | 0.7 | 2.9 | -6
COc1ccc(NC(=O)CN(C)S(=O)(=O)c2cccc3nsnc23)cc1OC | -0.5 | 2.8 | 6.0 | 0% | nt | 1.6 | 9
O=C(O)Cn1cc(C(=O)c2ccco2)c2ccccc21 | -0.2 | 2.2 | 13 | 8% | 0.74 | -1.2 | 3
COc1ccc(N2C(=O)CSC2c2ccc3c(c2)OCO3)cc1 (stereo unspecified) | 0.4 | -3.1 | 0.1 | -2% | 0.65 | 0.5 | 4
Cc1ccc(C)c(S(=O)(=O)Nc2ccc3oc(C)c(C(=O)O)c3c2)c1 | -0.4 | -5.5 | 0.9 | nt | 0.7 | -31 | 13
Nc1c(C(=O)NCc2ccc3c(c2)OCO3)nnn1Cc1cccc(F)c1 | -0.3 | 1.0 | nt | -5% | nt | -1.9 | 0
C/C(=N\NC(=O)c1ccccc1C)c1ccc(NC(=O)c2cccs2)cc1 | -2.1 | 1.8 | nt | 1% | nt | -2.7 | -14
O=C(COC(=O)C1CCN(/C=C/C(=O)C(F)(F)F)CC1)Nc1cccc(F)c1 | -0.3 | -5.1 | 6.4 | nt | nt | 1.2 | 4
COc1ccc(-c2oc3ccccc3c2C#CC(C)(C)O)cc1 | -0.8 | -0.6 | -12 | nt | 0.65 | 7.5 | 9
Cn1c(=O)c2c(nc(N3CCCCC3)n2CCSc2nc3ccccc3s2)n(C)c1=O | -0.4 | 3.2 | -0.5 | 6% | 0.72 | -1.2 | -7
COc1ccccc1C1C2CCCCC2(O)CCN1CC(=O)Nc1ccccc1 (stereo unspecified) | -0.6 | -1.9 | 3.3 | 4% | 0.71 | 4.5 | -3
CC1CC(C)CN(S(=O)(=O)c2ccc(NC(=O)C3CC(=O)N(Cc4ccccc4)C3)cc2)C1 (stereo unspecified) | 0.9 | -1.0 | 2.8 | -1% | 0.72 | 5.5 | 4
O=C(CCCN1C(=O)/C(=C\c2ccco2)SC1=S)Nc1cccc2ccccc12 | 0.4 | -5.3 | nt | 2.6µM* | nt | 7.5 | -5
COc1cc(SC)ccc1C(=O)Nc1cccc(S(=O)(=O)NC2=NCCCCC2)c1 | 0.1 | -1.9 | 2.5 | -7% | 0.68 | -0.3 | 4
CCCCc1cc(=O)oc2c(C)c(OCC(=O)N3CCC(C(=O)O)(c4ccccc4)CC3)ccc12 | 0.4 | 2.2 | -37 | nt | 0.72 | 0.4 | -29
COc1ccccc1N1CCN(C(=O)c2cc(-c3ccc(Cl)c(Cl)c3)on2)CC1 | 0.2 | 4.4 | 3.3 | 16% | 0.73 | -0.7 | 5
O=C(O)C1[C@H]2C(=O)N(Cc3cccs3)C[C@]23C=C[C@H]1O3 (stereo partly specified) | -0.7 | 3.8 | 5.8 | -3% | 0.65 | -1.4 | 1
C=CCn1c(-c2sc3nc(C)cc(C)c3c2N)n[nH]c1=S | 0.7 | -5.7 | -40 | nt | 0.61 | -0.2 | 26

Two entries drawn at random from those above, as already listed:
SMILES | A1 inh | LANA-H2A inh | UCH37 DUB inh | Vif TR-FRET | Ecoli growth | HNF4A DNA FP | B2AR ag
COC(=O)NCC(c1ccco1)N1CCN(c2ccccc2)CC1 (stereo unspecified) | 0.3 | 1.7 | 1.1 | 7% | 0.71 | 3.2 | -3
Cn1c(=O)c2c(nc(N3CCCCC3)n2CCSc2nc3ccccc3s2)n(C)c1=O | -0.4 | 3.2 | -0.5 | 6% | 0.72 | -1.2 | -7
